Source: PubChem BioAssay
Beta cell apopt: beta cell apoptosis inhibition. INS-1E cytokine-induced death, ATP luminescence, 48 h; percent of positive-control rescue, neutral wells zero. protection from apoptosis, % (test concentration not listed). 300,000 tested, 0.8% active. AID 435005;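 active = all replicates at 75% or more, or half of them and the mean; inconclusive = half reach 75% but not the mean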;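 note: 0% = cytokine-treated negative control wells and 100% = positive control rescue; higher means more ATP so stronger rescue from cytokine killing; wells of about 40 µL received 100 nL stock; the first replicate is given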
Vif TR-FRET: inhibitors of Vif binding to APOBEC3G peptide, primary screen, biochemical, TR-FRET, GST-Vif 1-94, biotin-A3G peptide, dose response retest (AID 1117319) | TR-FRET GST-Vif / biotin-A3G peptide binding; higher % means a stronger effect; test concentration not given here; strong numbers were not always called active | inhibition, %; hits with a dose series show IC50 in µM | 260,000 tested, 0.57% active;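 active = above the screen mean plus three standard deviations and confirmed in dose response; inconclusive = results disagree or hit not tested in dose response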;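 note: Vif residues 1-94 fused to GST binding biotinylated APOBEC3G peptide 110-148; 0% = full assay without inhibitor and 100% = GST in place of GST-Vif; retest series ran down from 100 µM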
RanGTP-Imp inh: inhibitors of RanGTP-importin-beta interaction, primary screen, biochemical, FRET, CFP-Ran, YFP-importin-beta, homogeneous | cell-free CFP-Ran/YFP-importin-beta FRET ratio | inhibition, % (concentration not given with the values) | 300,000 tested, 1.1% active | AID 2216;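 active = most replicates above 15%; inconclusive = exactly half above 15%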;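 note: 0% = DMSO wells and 100% = Ran loaded with GDP instead of GTP; wells of about 40 µL received 100 nL stock; the first replicate is given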
Bfl-1 A1 inh: inhibitors of the anti-apoptotic protein A1, read as caspase activation; MEF A1-2A-BIM cells, Caspase-Glo 3/7 luminescence, 3 h; percent of clofoctol response, vehicle zero; caspase activation, % (no concentration beside the values); 330,000 tested, 0.066% active; AID 2462;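 active = over half of replicate activation scores above 10%, or exactly half above 10 with the replicate mean above 10; inconclusive = replicate mean below 10 yet half the replicates above 10; inactive = over half of replicates below 10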;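 note: wells of about 30 µL received 50 nL stock; many hits fall short of the cut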
T cruzi repl: blocks replication of Trypanosoma cruzi; 300,000 tested, 1.4% active; inhibition, % (test concentration not listed); T. cruzi beta-gal in NIH3T3, luminescence, 90 h;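 active = mean inhibition across valid replicates above about 55%, limit read from the data; inconclusive = mean below that limit but half or more replicates reach it; inactive = mean below it, under half of replicates reach it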;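 note: signal also drops with host cell toxicity which is not excluded here; 0% = plate median of DMSO wells and 100% = zero luminescence signal; higher percent means less beta-gal luminescence so fewer parasites; stock transfer was 50 nL into about 50 µL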
rRNA inh HTS: selective bacterial rRNA inhibition in E. coli | E. coli WT GFP vs humanized-ribosome RFP mutants, fluorescence, 24 h; hits give low values; DMSO median 0, no signal -100 | GFP signal change (wild-type ribosome), % (concentration not given with the values) | 350,000 tested, 1.6% active | AID 720706;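 active = significant combined selectivity score with lowered wild-type GFP, culture density cut under 30%, mutant RFP and density less affected; inactive = any of these conditions unmet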; note: one replicate is shown; some compounds called inactive have numbers as strong as hits
Calb FLC: affects C. albicans growth with fluconazole; C. albicans CaCi-2 (fluconazole-resistant clinical isolate) + fluconazole, Alamar Blue growth, 48 h; growth inhibition, % (test concentration not listed); 300,000 tested, 0.57% active;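 active = most replicates above 75%; inconclusive = exactly half above 75%; inactive = most below 75%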;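 note: all wells also contain fluconazole at 8 µg/ml as a sub-toxic cotreatment; 0% = median of DMSO wells and 100% = median of geldanamycin control wells; wells of about 8 µL received 7.5 nL stock; the first replicate is given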
AF4-AF9 inh: blocks AF4 peptide binding to human AF9 | P42568 | AlphaScreen, biotin-AF4 peptide binding to FLAG-AF9 | inhibition, % at 10 µM | 350,000 tested, 0.47% active;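 active = every replicate reaching a set inhibition limit, whatever the replicate mean, cut at about 25% in these data; inconclusive = mean inhibition reaches that limit but some replicates miss it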;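 note: 0% = plate neutral control median and 100% = total signal loss; the record names both 10 and 1 µM as test concentration; the first replicate is given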
Target sequence (P42568 whole entry, looked up): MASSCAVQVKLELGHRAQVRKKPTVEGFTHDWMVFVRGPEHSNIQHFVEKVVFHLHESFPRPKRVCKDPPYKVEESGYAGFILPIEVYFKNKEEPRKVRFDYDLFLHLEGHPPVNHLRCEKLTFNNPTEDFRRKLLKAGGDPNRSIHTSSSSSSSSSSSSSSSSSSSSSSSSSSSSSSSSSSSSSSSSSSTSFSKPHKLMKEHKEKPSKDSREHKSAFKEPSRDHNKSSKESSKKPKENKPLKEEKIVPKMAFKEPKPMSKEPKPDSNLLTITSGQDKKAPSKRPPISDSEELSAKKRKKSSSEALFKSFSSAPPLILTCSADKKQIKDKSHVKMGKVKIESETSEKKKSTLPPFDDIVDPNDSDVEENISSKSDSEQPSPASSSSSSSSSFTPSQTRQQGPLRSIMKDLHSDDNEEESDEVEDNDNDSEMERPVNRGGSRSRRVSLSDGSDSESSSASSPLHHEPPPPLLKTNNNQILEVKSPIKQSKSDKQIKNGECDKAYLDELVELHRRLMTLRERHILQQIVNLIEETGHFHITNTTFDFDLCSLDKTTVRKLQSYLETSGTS
rRNA inh HTS OD600: also measured in rRNA inh HTS; calls as there; OD600 change, %; measured here: OD600 growth;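 optical density of the mix in the first replicate; 0 = DMSO median and -100 = no signal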
rRNA inh HTS RFP: also measured in rRNA inh HTS; calls as there; RFP signal change, %; measured here: RFP humanized mutant strains;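 first replicate; 0 = DMSO median and -100 = no signal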
* = called active by the depositor; ? = inconclusive; nt = not tested or not shown; & = joins results of further samples. An excerpt; count on the stated rates, not on these rows.

Second line of a record: Beta cell apopt, Vif TR-FRET, RanGTP-Imp inh, Bfl-1 A1 inh, T cruzi repl, rRNA inh HTS, rRNA inh HTS OD600, rRNA inh HTS RFP, Calb FLC, AF4-AF9 inh
1	CCn1c2ccc(F)cc2c2nc3ccccc3nc21
    5.5, -0.4%, -0.3, -0.4, 8.1, 3.7, -3.0, -1.0, 0.0, 1.2
2	Cc1cccc(NC(=O)C2CCN(C(=O)[C@@H]3Cc4ccccc4CN3)CC2)c1
    1.3, 7.1%, 4.1, 0.1, 5.7, 4.4, 8.3, -0.3, nt, 1.7
3	O=C(O)C=C(Br)Br
    nt, nt, -3.7, -1.1, -7.9, nt, nt, nt, 1.7, -0.8
4	CN(C)/C=C(\C#N)C(=O)Nc1ccccc1
    0.1, 3.5%, 1.0, -0.9, -6.5, 6.7, 7.4, -0.8, -4.0, 0.4
5	COc1cc(C(=O)NCC(c2cccs2)N2CCOCC2)cc(OC)c1OC (stereo unspecified)
    nt, 8.6%, -2.0, -0.4, -8.3, 6.3, 5.1, -1.3, 0.6, -1.9
6	CCOC(=O)N1CCN(C(=O)Cc2ccc(-n3c(=S)[nH]c4ccccc4c3=O)cc2)CC1
    5.1, 0.9%, ?, -2.1, 5.7, 4.5, 4.2, -3.3, ?, -6.5
7	COc1ccc(OC)c(/C=N/N(C)c2ccccc2)c1
    -10.8, 0.9%, 3.6, -0.4, -22.6, nt, nt, nt, -5.6, nt
8	CSc1ncc(Cl)c(C(=O)Nc2ccccc2Cl)n1
    -4.4, 9.6%, 4.6, 0.5, 0.7, nt, nt, nt, 0.0, nt
9	O=C(Nc1ccc(Cl)cc1)Nc1nnc(-c2ccncc2)s1
    98.8*, nt, 0.0, 0.7, -14.4, nt, nt, nt, 5.8, nt
10	CN(C)c1ccc(C(=O)OCC(=O)NCCNC(=O)COC(=O)c2ccc(N(C)C)cc2)cc1
    -10.2, nt, -0.8, -0.1, 1.1, -0.1, 6.1, -1.2, 18.5, -9.8
11	CC(C)c1ccccc1NC(=O)c1ccco1
    -0.7, 2.3%, 2.2, 0.1, 0.0, 10.7, -1.9, 0.8, 4.4, 1.9
12	Cc1cc(C)n(-c2ccc(C(=O)Nc3ccc(C)c(S(=O)(=O)N(C)C)c3)cc2)n1
    0.5, nt, -0.7, 0.2, 1.7, nt, nt, nt, 23.1, nt
13	CCCn1c(/N=C/c2cc(OC)ccc2O)nc2ccccc21
    2.3, 0.6%, 0.6, -0.2, -11.9, nt, nt, nt, 44.4, nt
14	COc1ccc(NC(=O)CN2CCN(C(=O)c3ccco3)CC2)c(OC)c1
    -2.9, 4.1%, 0.0, -0.5, -3.6, nt, nt, nt, -12.0, nt
15	C/C(=N\NC(=O)CC#N)c1cc2ccccc2oc1=O
    0.6, -1.5%, 2.7, -0.4, -1.6, nt, nt, nt, 0.8, nt
16	CC(C)c1nc(SCC(=O)Nc2cccc(C(F)(F)F)c2)c2c(=O)n(C)c(=O)n(C)c2n1
    12.1, -1.1%, 5.1, -0.3, 17.2, 3.1, 9.4, -2.8, 1.9, -3.0
17	COC(=O)[C@@H](Cc1c[nH]c2ccccc12)NC(=O)CCC(=O)c1ccc(F)cc1
    nt, 3.4%, 0.2, 0.9, -2.8, -3.3, -2.7, 2.9, 13.1, 0.6
18	O=C(NCCCNC(=O)c1cncc(O)c1)c1cncc(O)c1
    1.2, ?, 5.8, -0.3, -28.1, 18.3, 12.9, -0.8, 5.0, 3.0
19	Cc1ccc(C(=O)OCC(=O)Nc2ccc3c(c2)OCO3)o1
    nt, 23.0%, 2.1, -0.3, -2.4, nt, nt, nt, -6.3, nt
20	O=C(COc1cc(Cl)c(Cl)cc1Cl)Nc1ccncc1
    -4.0, 14.8%, 2.0, -0.9, -0.9, nt, nt, nt, 8.8, nt

(more compounds)
Second line of a record: Beta cell apopt, Vif TR-FRET, RanGTP-Imp inh, Bfl-1 A1 inh, T cruzi repl, rRNA inh HTS, rRNA inh HTS OD600, rRNA inh HTS RFP, Calb FLC, AF4-AF9 inh
21	COc1ccc(OC)c(/C(C)=N/Nc2ccc(C(=O)O)cc2)c1
    -2.9, ?, -1.0, 1.2, -1.4, 4.0, -4.1, -1.9, 5.6, -1.8
22	O=C(C1CCC(CNS(=O)(=O)c2cccc3nsnc23)CC1)N1CC=C(c2ccccc2)CC1 (stereo unspecified)
    3.1, 2.2%, 4.5, 0.1, 22.4, -4.3, -4.7, -9.0, 1.1, -4.5
23	OCCCN1c2ccccc2Nc2nnc(-c3ccccc3)cc21
    -0.6, 19.3%, -0.3, -2.9, -3.1, nt, nt, nt, 12.9, nt
24	Cc1ccsc1C1CC(=O)Nc2ccccc2S1 (stereo unspecified)
    0.6, 5.6%, -1.2, 0.9, 0.4, -37.9, -48.1, -9.7, 9.3, -0.5
25	COc1ccc(CN(C)C[C@H]2Oc3c(NC(=O)Nc4ccccc4)cccc3C(=O)N([C@H](C)CO)C[C@@H]2C)cc1
    -0.3, nt, nt, -0.5, nt, -5.5&-7.0, -5.2&2.9, 1.9&-16.6, nt, 1.3&0.5
26	CCC(C)(C)n1nnnc1CN1CCC(c2nc3ccc(C)cc3[nH]2)CC1
    0.3, 4.8%, 4.9, 0.1, 15.9, nt, nt, nt, 23.9, nt
27	CCn1ncc(C2=NOC(C(=O)N3CCC(C(N)=O)CC3)C2)c1C (stereo unspecified)
    -3.9, -1.0%, -4.4, -0.4, -0.5, nt, nt, nt, -2.8, nt
28	CCOC(=O)c1c(C)n(CC(O)c2ccccc2)c2ccc(O)cc12 (stereo unspecified)
    1.9, 3.1%, -5.6, ?, 7.7, nt, nt, nt, 19.7, nt
29	CCOC(=O)Cc1cc(=O)[nH]c(Nc2nc3ccccc3o2)n1
    0.6, 17.7%, 1.6, -0.3, -3.4, nt, nt, nt, 10.5, nt
30	Cn1nc(C(=O)N2CCN(c3ccc(Cl)cc3)CC2)c2c1-c1ccccc1S(=O)(=O)C2
    -2.8, 27.2%, 11.7, 0.7, 1.8, -7.8, -22.9, 2.9, 6.4, 0.2
31	Cc1cccc(C(=O)NNC(=O)CN2C(=O)c3ccccc3C2=O)c1
    -5.1, 21.7%, -3.6, 0.3, -13.4, 2.5, 2.6, -0.1, -3.6, -2.5
32	CC1(C)CC(=O)C2=C(C1)NC1=C(C(=O)c3ccccc31)C2c1ccc(O)cc1 (stereo unspecified)
    -2.4, 2.7%, -0.7, -1.3, -4.0, nt, nt, nt, 30.0, nt
33	COc1ccccc1CCN1C(=S)NC(C)(C)CC1(C)O (stereo unspecified)
    0.3, -5.4%, -3.2, -0.7, -18.6, nt, nt, nt, -1.3, nt
34	O=C(Nc1ccc(Cl)cc1)NC1CCCCC1Cc1ccco1 (stereo unspecified)
    nt, 4.3%, -2.6, 0.5, 23.3, nt, nt, nt, 1.4, nt
35	Cc1cc(Cl)ccc1OCC(=O)NNC(=O)c1cccnc1
    -13.5, nt, 5.4, 0.2, -8.6, 0.7, 1.3, -3.3, -3.3, 0.3
36	O=C1NC(C(=O)O)=CC(c2ccc([N+](=O)[O-])cc2)N1 (stereo unspecified)
    1.1, nt, -1.3, 0.5, -3.0, 10.8, 4.9, -2.7, -4.0, -13.4
37	COc1cc(OC)c(C2Oc3nc(SC)nnc3-c3ccccc3N2C(C)=O)cc1OC (stereo unspecified)
    -2.8, -0.6%, ?, -0.7, -5.3, 1.4, 6.9, 0.5, 3.3, 1.0
38	Cc1ccccc1N(CC(=O)NC1CCCCC1)C(=O)c1csnn1
    3.8, nt, -1.1, 0.6, -4.8, 4.0, 17.9, 3.1, 15.2, -21.6
39	CCn1nc(C(=O)N2CCc3ccccc3C2)c2ccccc2c1=O
    nt, -6.3%, -4.3, 0.5, -0.3, nt, nt, nt, -22.9, nt
40	NC(=O)C1(NC(=O)[C@@H]2CC3(CC(c4cccc(NC(=O)[C@@H]5CCC(=O)N5)c4)=NO3)CN2C(=O)Cc2ccc(Cl)cc2)CC1 (stereo partly specified)
    -0.6, 4.4%, 1.2, 0.1, -13.6, 11.3, 9.4, -2.7, -1.3, -0.3

Remaining list, next part.
Second line of a record: Beta cell apopt, Vif TR-FRET, RanGTP-Imp inh, Bfl-1 A1 inh, T cruzi repl, rRNA inh HTS, rRNA inh HTS OD600, rRNA inh HTS RFP, Calb FLC, AF4-AF9 inh
41	O=C(CN1CCN(c2ccccn2)CC1)NCc1cccs1
    -0.6, -0.8%, 4.2, 0.7, 7.9, nt, nt, nt, 2.3, nt
42	COc1ccc(C2(CNC(=O)c3cccs3)CCOCC2)cc1
    -6.6, 9.6%, 0.4, 0.0, -18.0, nt, nt, nt, -4.0, 0.0
43	O=C(c1ccc2c(c1)OCO2)N1CCC2(CC1)Oc1ccc(F)cc1C(=O)C21CC(c2cccnc2)=NO1 (stereo unspecified)
    -4.4, -7.6%, -0.8, -0.2, 5.2, -6.2, -14.2, -0.6, 76.8*, nt
44	Cc1c(N)c(C(C)(C)C)cc(C(C)(C)C)c1[N+](=O)[O-]
    -3.2, 2.9%, -0.6, 0.8, 15.4, nt, nt, nt, 4.0, nt
45	COC(=O)CCC(=O)Nc1cccc(C(=O)Nc2cccc(Cl)c2)c1
    -2.4, -5.5%, 2.2, -2.9, -0.2, nt, nt, nt, 0.8, nt
46	O=C(NCC1CCCO1)c1cccc(NC(=O)c2ccc(Br)cc2)c1 (stereo unspecified)
    -1.5, nt, -4.3, 0.1, -3.9, 1.4, 6.1, -2.2, 15.6, -3.7
47	Cc1cccc(-n2c(=O)c3ccccc3n3c(=S)[nH]nc23)c1C
    -4.7, nt, -1.1, -0.7, -10.7, 0.7, 7.0, -2.6, 12.5, -8.2
48	COc1ccccc1OCCNC(=O)C1CC(=O)N(c2ccccc2OC)C1 (stereo unspecified)
    -3.9, -9.1%, nt, 1.7, nt, 18.2, 21.4, 1.9, nt, 0.0
49	CCCn1c(SCC(=O)Nc2ccc3c(c2)OCCO3)nnc1-c1ccco1
    -0.5, 12.3%, -1.4, 0.2, 14.2, nt, nt, nt, 3.7, nt
50	O=C1CCC/C=C/C[C@@H](CC(=O)N(CCO)Cc2ccccc2)C(=O)NC[C@H](c2ccccc2)O1
    4.5, nt, nt, -0.7, nt, -1.5, -4.0, -9.9, nt, 0.0
51	O=[N+]([O-])c1cccc(NC(=S)NCCc2ccccc2)c1
    5.3, 8.2%, ?, 0.6, -13.2, -15.0, -11.5, 0.1, -79.2, 5.4
52	CC1(C)NC(=O)N(CC(=O)OCC(=O)Nc2cccc(F)c2)C1=O
    -8.1, -1.6%, 1.7, -0.5, -6.7, nt, nt, nt, -0.8, nt
53	CCCCCN(C(=O)CCC(=O)OCC(=O)N1C(C)CCCC1C)c1c(N)n(CCCC)c(=O)[nH]c1=O (stereo unspecified)
    -9.8, nt, 3.6, 0.6, -7.3, 2.0, 7.0, 0.1, -3.4, -1.8
